Screening data: PubChem BioAssay, National Center for Advancing Translational Sciences (NCATS)
ClpP mod: qHTS Assay for Activators of ClpP; ATP-dependent Clp protease proteolytic subunit (Bacillus subtilis (strain 168)), P80244; purified B. subtilis ClpP, FRET peptide cleavage, 20 min; Potency, µM (series often up to 57.5 µM), inactives show at the top dose activity change, negative = active; hit rate 1.9% among 340,000; active = well fitted falling curve with a large enough effect; inconclusive = small, poorly fitted or top-dose-only effect; inactive = no such curve, though single readings can be large or run the other way; note: potency is the fitted concentration of half-maximal effect; the source files actives as falling curves though it sought activators and does not explain the sign; nearly all actives have a fitted effect of over 65% in size; many hits overshoot -100%
Target sequence (P80244 whole entry, looked up): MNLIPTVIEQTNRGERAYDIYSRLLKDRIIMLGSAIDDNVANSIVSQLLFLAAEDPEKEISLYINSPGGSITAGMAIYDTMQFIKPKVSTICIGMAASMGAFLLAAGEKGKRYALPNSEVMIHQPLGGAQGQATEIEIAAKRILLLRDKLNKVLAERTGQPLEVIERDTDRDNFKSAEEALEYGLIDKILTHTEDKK
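Buffer: 100 mM Tris/HCl pH8, 100 mM KCl, 0.05% low protease BSA, 2.5% glycerol, 0.01% Tween-20. ClpP 10 microg/mL final; 20 min RT; delta FRET normalized to ADEP and DMSO controls.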
TRPML1 ag: qHTS for Agonists of the Human Mucolipin Transient Receptor Potential 1 (TRPML1) | Mucolipin-1 (Homo sapiens), Q9GZU1 | TRPML1-expressing cells, Ca2+ dye fluorescence, FDSS; host cell line not named in the record; reference of the full effect not given here | activation, % (no concentration beside the values) | hit rate 0.12% among 410,000 | AID 624414, 2012; in the data active = activation above about 50%; inconclusive = about 30% to 50%; inactive = below about 30%; note: 0% is about no effect; the text of the record puts the active cut at 80%
Target sequence (Q9GZU1 whole entry, looked up): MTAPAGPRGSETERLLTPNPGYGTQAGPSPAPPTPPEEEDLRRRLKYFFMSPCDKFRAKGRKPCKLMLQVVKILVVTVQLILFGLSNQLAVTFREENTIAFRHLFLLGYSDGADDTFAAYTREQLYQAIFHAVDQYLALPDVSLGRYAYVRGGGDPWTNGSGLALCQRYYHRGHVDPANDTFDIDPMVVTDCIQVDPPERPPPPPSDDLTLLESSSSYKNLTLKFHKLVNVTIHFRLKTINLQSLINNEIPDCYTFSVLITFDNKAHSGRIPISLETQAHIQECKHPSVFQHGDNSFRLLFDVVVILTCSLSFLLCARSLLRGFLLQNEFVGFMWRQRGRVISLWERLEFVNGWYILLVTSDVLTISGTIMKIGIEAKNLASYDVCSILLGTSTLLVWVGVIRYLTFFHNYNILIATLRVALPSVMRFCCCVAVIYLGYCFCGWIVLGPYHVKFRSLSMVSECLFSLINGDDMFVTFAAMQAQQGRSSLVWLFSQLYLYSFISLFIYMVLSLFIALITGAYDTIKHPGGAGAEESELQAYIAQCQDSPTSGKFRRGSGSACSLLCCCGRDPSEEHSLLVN
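In this qHTS format, compounds were pin-transferred onto Ca8-dye-loaded TRPML1-DL cells induced with Tet overnight, and intracellular Ca2+ fluorescence was recorded kinetically for 110 s after a 10 s baseline. A subsequent 4uM final 54-4 (EC80) addition followed by a second 110 s read served as the antagonist phase.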
gsp agonist: qHTS for Agonist of gsp, the Etiologic Mutation Responsible for Fibrous Dysplasia/McCune-Albright Syndrome: qHTS. AID 624287, 2012. hit rate 0.13% among 340,000. gsp mutant cells, cAMP HTRF, 30 min; control for the full effect not named in the record. Potency, µM (titrated, usually from 76.9 µM), inactives show at the highest dose activation (cAMP increase), actives largely listed as activators; active = well fitted activation curve with a large enough effect; inconclusive = small, poorly fitted or top-dose-only effect, or another doubt; inactive = no such curve, though single readings can be large or run the other way; cell line not stated here;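 note: phosphodiesterase inhibitor Ro 20-1724 added with compounds to block cAMP breakdown; potency is the fitted concentration of half-maximal effect; nearly all actives have a fitted effect of over 60% in size; about a fifth of the inactives were tested at one dose only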
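Cells in DMEM/10% FBS with G418 were pretreated with compounds in DMSO plus […] (300 uM stock) for 30 min at 37C. cAMP was measured by HTRF (cAMP-d2 plus anti-cAMP antibody-K) after 30 min at room temperature.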
Menin MLL FP FL: qHTS Assay for Inhibitors Targeting the Menin-MLL Interaction in MLL Related Leukemias: Competition With Fluorescein Labeled MLL-derived Peptide; Fluorescence polarization, fluorescein-MLL peptide displacement from menin; FP activity change, % at 61.4 µM; 290,000 tested, under 10 active; inconclusive = falling polarisation curve, or a change in total fluorescence; inactive = total fluorescence flat and polarisation flat or rising; no compound was filed as active; the % refers to the polarisation; negative = inhibition;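 note: % of control where 0% means no effect; inhibitors lower the polarisation; unlabelled MLL peptide was the positive control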
TRPML1 blocker: qHTS for Inhibitors of the Human Mucolipin Transient Receptor Potential 1 (TRPML1); Mucolipin-1 (Homo sapiens), Q9GZU1; TRPML1-inducible cells, Ca2+ dye fluorescence, FDSS; active compounds read low; inhibition of EC80 agonist-evoked calcium signal; activity change, negative = inhibition, % (concentration not given with the values); hit rate 0.02% among 390,000; AID 624415, 2012; in the data active means activity change below about -50%; inconclusive means about -30% to -50%; inactive means above about -30%;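 note: stimulus is agonist 54-4 at its EC80 concentration; % is set by controls: 0 for no effect and ±100 for the full control effect; the text of the record puts the active cut at -80%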
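Calcium fluorescence in TRPML1-DL cells induced overnight with Tet: a 110 s read after compound pin addition, then a 110 s antagonist read after challenge with 54-4 at 4 uM final (EC80).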
gsp antag: qHTS for Antagonists of gsp, the Etiologic Mutation Responsible for Fibrous Dysplasia/McCune-Albright Syndrome: qHTS | hit rate 0.4% among 340,000 | AID 624288, 2012 | gsp-mutant cells, cAMP HTRF, 30 min; control for the full effect not named in the record | Potency, µM (top dose mostly 76.9 µM), without a hit: at the top dose activity change, negative = inhibition, most hits filed as inhibitors; active = falling curve of any shape with a large fitted effect; inconclusive = falling curve, mostly with a smaller effect; inactive = flat or rising curve; cell line not stated here;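 note: intracellular cAMP measured with PDE inhibitor Ro 20-1724 present during compound exposure; potency is the fitted concentration of half-maximal effect; % is set by controls: 0 for no effect and ±100 for the full control effect; nearly all actives have a fitted effect of over 65% in size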
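HTRF cAMP read-out (cAMP-d2 plus anti-cAMP antibody-K in lysis buffer, 30 min RT). Before lysis, cells are exposed to compounds with […] for 30 min at 37C in DPBS containing Ca/Mg, BSA and Tween 20.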
* = called active by the depositor; ? = inconclusive; nt = no result given; [ ] = remark or other dose.

Sequence of screens: gsp agonist, TRPML1 blocker, gsp antag, TRPML1 ag, ClpP mod, Menin MLL FP FL
> Cc1ccc(C(=O)N/C(=C/c2ccco2)C(=O)NCC2CCCO2)cc1 (configuration not stated)
→ -2%[15.4 µM], -4, 3%, 0.4, -2.4%, 1.9
> O=C1CCCc2ccccc2N1Cc1c(Cl)cccc1Cl
→ 0%, -3, -17%, 4.0, -15%, -8.9
> CCOC(=O)c1ccc(N2C(=O)C3CC=C(C)CC3C2=O)cc1 (configuration not stated)
→ ?, 11, 9%, -1.2, 2.5%, 2.3
> O=C(NCCc1ccc(Cl)cc1)c1ccc(CNc2c(N3CCOCC3)c(=O)c2=O)cc1
→ -28%, -21, -7%, 0.8, 0.2%, 2.3
> O=C(CSc1nnnn1C1CCCC1)c1ccc2c(c1)OCCO2
→ -15%, 7, -3%, -0.4, 0.4%, -1.7
> Cc1nc(NCCO)c(C#N)c2c1COC(C)(C)C2
→ 1%, -5, -3%, -0.3, 22µM*, 1.8
> COCCn1c(-c2ccccc2)nc2oc3cc(OC)ccc3c(=O)c2c1=O
→ 14%, 2, -1%, -0.1, -7.7%, 0.8
> COc1ccc(-c2cc(C3C4C=CCC(C)C4C(=O)N3Cc3ccccc3)ccc2F)cc1OC (configuration not stated)
→ nt, 73, nt, 1.1, nt, -0.4
> Cc1ccc(NCCC(=O)c2ccc(Cl)cc2)cc1
→ -58%[inhibitor], -14, 5%, 0.3, 0.0%, -3.2
> COc1ccc(NC2=C(C(C)=O)C(c3ccc4c(c3)OCO4)C(C(C)=O)C(C)(O)C2)cc1 (configuration not stated)
→ -41%[inhibitor], -1, -6%, -0.4, -1.4%, 1.7
> O=c1[nH]c(SCc2ccccc2)nnc1-c1ccccc1
→ ?, 11, -8%, -1.3, -2.5%, 1.6
> COc1ccc(/C=N\NC(=O)c2ccc(F)cc2)cc1COc1cc(F)ccc1[N+](=O)[O-]
→ 17%[15.4 µM], 27, -15%, 1.2, -1.4%, -0.5
> Cc1c(C)c2ccc(OCC(=O)NCCCn3ccnc3)c(C)c2oc1=O
→ ?, 58, 12%, 0.0, 3.5%, nt
> CCc1ccc(N2CC(C(=O)OCC(=O)Nc3ccccc3C)CC2=O)cc1 (configuration not stated)
→ -22%, 6, -4%, 0.3, 0.0%, nt
> O=C(N1CCN(Cc2ccccc2)CC1)C(Cl)(Cl)Cl
→ -7%[15.4 µM], -5, 1%, 0.4, 13µM*, -1.4
> COc1ccc(CNC(=O)c2c[nH]c3c(OC)cc(OC)cc3c2=O)cc1
→ -24%, nt, 7%, nt, 4.3%, 9.3
> CC(C)OCCCN1CN(S(=O)(=O)c2cccs2)c2nc3ccccc3nc21
→ -1%[15.4 µM], 24, -4%, 3.1, nt, 5.0
> COc1ccc(Cc2c(O)nc(SCC(=O)c3ccc(OC)cc3)[nH]c2=O)cc1
→ 12%[15.4 µM], -3, -22%, -0.7, nt, -1.3
> Clc1ccc(SCc2cc(-c3ccc(Cl)cc3)on2)cc1
→ 0%, -6, 3%, 0.1, -1.4%, -1.5
> Cc1ccc(Cn2nnc3c(=O)n(CC(=O)OCc4ccccc4)cnc32)cc1
→ -9%, 4, ?, 0.0, -1.4%, 3.7
> O=C(Cc1ccc(Cl)cc1Cl)Nc1ccncc1Cl
→ ?, 39, -6%, 1.6, -0.1%, nt
> O=C(O)c1ccc(/C=C/C(=O)c2ccc3c(c2)OCCCO3)cc1
→ 21%[15.4 µM], -27, -29%, -0.3, nt, nt
> CC1(C)NC(=O)N(CC(O)CN2C(=O)NC(C)(C)C2=O)C1=O
→ ?, -12, 14%, 0.3, 2.6%, -0.6
> Cc1ccc2nc(Nc3ccccc3)cc(C)c2c1
→ 25%, 4, -9%, -1.4, 4.3%, 1.2
> S=C1CCC(c2ccc(Br)cc2)=NN1c1ccccc1
→ -19%, 2, -24%, 2.6, 0.7%, 3.9
> N#CC1(NC(=O)CSc2nc3ccc([N+](=O)[O-])cc3s2)CCCCC1
→ -23%, 42, -1%, -0.7, 1.6%, nt
> CCOc1ccc(C(O)(c2ccccc2)C(CN2CCCC2)c2ccccc2)cc1 (configuration not stated)
→ -19%, -15, 5%, -0.3, nt, 2.4
> Cc1nc2ccc(F)cc2cc1C(=O)Nc1ccc(Cl)c(Cl)c1
→ ?, 10, 3%, -0.1, -2.9%, -1.8
> CN(C)CCn1c2c(c(SCC(=O)Nc3ccc4c(c3)OCCO4)nc1=O)CCCC2
→ 16%, 9, -4%, -1.0, -2.3%, nt
> COc1cc(NC2=Nc3cccc4cccc2c34)cc(OC)c1OC
→ -2%, 4, 2%, 1.7, -5.8%, 22
> O=C(NCCc1ccc(C(F)(F)F)cc1)c1ccc(Cl)nc1
→ ?, -8, 2%, -1.0, 2.2%, 8.6
> COc1cccc(/C=N/NC(=O)c2cnccn2)c1
→ -10%, -1, 9%, -0.3, -1.6%, 10
> Cc1cc(C)c(C)c(S(=O)(=O)N2CCC(C(=O)NCc3ccco3)CC2)c1C
→ -41%[inhibitor], 8, -8%, 1.4, 1.1%, nt
> COc1cnc(-c2ccccn2)nc1N(C)c1ccccc1
→ ?, 0, 12%, 0.8, nt, nt
> Cc1cc(C(=O)CCC(=O)N(C)CC(=O)Nc2ccc(OC(F)(F)F)cc2)c(C)s1
→ 2%, 0, -7%, 0.2, 1.5%, nt
> CCNS(=O)(=O)c1c(C)cc(C)c(N(C)S(=O)(=O)c2ccccc2)c1C
→ -24%[15.4 µM], -17, -10%, 0.8, nt, -1.0
> CCn1cc(Br)c(C(=O)Nc2ccc(F)cc2F)n1
→ -17%, -8, 7%, 0.3, 1.8%, 2.5
> C/C(=N\NC(=O)c1ccc(N(C)C)cc1)c1ccc(C)c(C)c1
→ 7%[15.4 µM], 11, -2%, 0.0, -1.9%, -3.3
> COc1cccc(-c2cc(C(F)(F)F)nc(-n3nc(C)c(Br)c3C)n2)c1
→ nt, 8, nt, 0.9, -18%, nt
> Cc1cccc(C(=O)Nc2nnc(SCc3cc(=O)n4cccc(C)c4n3)s2)c1
→ nt, 10, nt, 0.9, -6.8%, nt
> CC(NC(=O)c1ccccc1Br)c1nnc(SCC(=O)NC2=NCCS2)n1C (configuration not stated)
→ 7%, 4, 6%, 0.3, nt, -0.9
> Cc1cc(C)n(C(C)CC(=O)Nc2ccc(-c3ccno3)cc2)n1 (configuration not stated)
→ 0%, -10, 0%, -0.7, -5.4%, 3.1
> COc1cc(/C=C/C(=O)OCC(=O)Nc2ccc3c(c2)OCCO3)ccc1O
→ -32%[15.4 µM], -3, 0%, 0.6, -3.9%, -1.0
> CC(=O)c1cccc(NC(=O)CSc2nc(=O)n(CCCN3CCOCC3)c3c2CCC3)c1
→ 10%, 3, -3%, -0.4, -9.7%, nt
> COc1cc(C#N)ccc1OCC(=O)Nc1cccc(S(=O)(=O)N2CCCC2)c1
→ 4%, -1, -9%, 0.2, -3.2%, 1.8
> N#C/C(=C\c1cccc(Oc2ccc(C(F)(F)F)cc2[N+](=O)[O-])c1)c1nc2ccccc2[nH]1
→ -39%[inhibitor], -3, -3%, -0.4, -5.6%, 1.5
> COc1ccc(S(=O)(=O)N(CC(=O)NC2CC3CCC2C3)c2ccccc2OC)cc1 (configuration not stated)
→ 0%[15.4 µM], -5, -6%, -1.2, 2.2%, 2.2
> O=C(Cc1ccc([N+](=O)[O-])cc1)NCc1ccncc1
→ -3%[15.4 µM], -10, 4%, -0.7, nt, -1.0
> C=C(C)C(=O)Nc1cccc(C2=NOC3(C2)C[C@@H](C(N)=O)N(C(=O)c2cc([N+](=O)[O-])cc([N+](=O)[O-])c2C)C3)c1 (some centres not stated)
→ ?, -15, 0%, -0.5, 2.0%, -1.9
> Cn1cnnc1SCC(=O)NC(=O)NC1CCCC1
→ -4%, -12, 8%, -0.5, 1.7%, -0.2

(continued)
Sequence of screens: gsp agonist, TRPML1 blocker, gsp antag, TRPML1 ag, ClpP mod, Menin MLL FP FL
> Cc1ccccc1NC(=S)NCC(c1cccnc1)N1CCOCC1 (configuration not stated)
→ -1%, -10, 3%, -0.2, -1.1%, -1.0
> S=c1[nH]nc(Nc2ccccc2)s1
→ -3%[15.4 µM], -4, -26%, 0.6, nt, -2.5
> O=C(NC(=S)N1CCCCC1)C12CC3CC(CC(C3)C1)C2
→ 4%, 2, 6%, 4.4, -1.6%, 3.0
> CC(C)CN1CCN(Cc2cc(F)ccc2-n2cccn2)CC1CCO (configuration not stated)
→ -81%[inhibitor], 1, -12%, 0.2, -2.8%, -0.6
> CCCCN(CCCNC(=O)CN1C(=O)COc2ccc(S(=O)(=O)N3CCC(C)CC3)cc21)Cc1ccccc1
→ -5%, 6, -2%, -0.6, -1.0%, -2.3
> O=c1c(-c2ccc3c(c2)OCCO3)c(C(F)(F)F)oc2cc(O)cc(O)c12
→ 12%, -16, 40µM*, 0.0, -1.9%, 6.7
> C/C(=N/Nc1nc(-c2ccccc2F)nc2ccccc12)c1ccccc1O
→ -31%[inhibitor], 22, ?, -0.1, 0.4%, ?
> CC(C)(C)OC(=O)C[C@@H]1C/C=C\C[C@@H](CC(=O)NCCO)C(=O)N[C@H](Cc2ccccc2)COC1=O
→ nt, 13, 3%, -0.2, -1.5%, nt
> COc1cccc(-c2cccc(NC(=O)C3CCN(Cc4cnn(C)c4)CC3)c2)c1
→ -22%, 8, -4%, -0.1, 0.7%, -5.7
> CC1CCCCC12NC(=O)N(CC(=O)NCCc1ccccn1)C2=O (configuration not stated)
→ -9%, 8, 3%, -0.3, -2.0%, -1.2
> CCOC(=O)c1c(C)[nH]c(C(=O)COC(=O)c2ccco2)c1C
→ -27%[15.4 µM], 0, 4%, -0.3, -13%, nt
> Cc1ccccc1C1C(C#N)=C(N)N(N(C)C)C2=C1C(=O)CC(C)(C)C2 (configuration not stated)
→ -27%, 28, -20%, 0.2, nt, 0.5
> O=C(Nc1ccc2oc(-c3cccnc3)nc2c1)c1ccccc1F
→ nt, -6, nt, 2.8, 4.2%, nt

One compound at a time, as listed above. Order of screens: gsp agonist, TRPML1 blocker, gsp antag, TRPML1 ag, ClpP mod, Menin MLL FP FL
Profile of O=C(Nc1ccc2oc(-c3cccnc3)nc2c1)c1ccccc1F → nt, -6, nt, 2.8, 4.2%, nt
Profile of CC(C)CN1CCN(Cc2cc(F)ccc2-n2cccn2)CC1CCO (configuration not stated) → -81%[inhibitor], 1, -12%, 0.2, -2.8%, -0.6
